Assay outcomes: PubChem BioAssay, National Center for Advancing Translational Sciences (NCATS)
PINK1 expr mod: PINK1 expression modulation. PINK1 immunofluorescence, high-content cytometry, 24 h. Potency, µM (highest dose often 76.6 µM), for inactives: at the highest dose activation (PINK1 increase), hits mostly activators. 410,000 compounds, 0.2% hits. AID 624263; active = well fitted activation curve with a large enough effect; inconclusive = small, poorly fitted or top-dose-only effect; inactive = flat fitted curve, though single readings scatter; cell line not stated here;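 further: potency means the concentration at half of the fitted maximal effect; % of control where 0% means no effect; nearly all actives have a fitted effect of over 65% in size; a mitochondrial uncoupler was the plate control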
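Stable cell line, 250 cells/well, 12 h attachment; compounds pinned at 5 concentrations, 24 h; CCCP control. Fixed with nuclear dye, primary antibodies 12 h at 10 degrees C, secondary plus cell stain; laser-scanning cytometer read.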
Six1-Eya2 inh: Six1/Eya2 interaction inhibition | AID 651725 | activity change, % (test concentration not listed) | 360,000 compounds, 0.56% hits | Q15475+O00167 | AlphaScreen GST-Six1/His-Eya2 binding, biochemical; active compounds read low; control for the full effect not named in the record; in the data active = activity change below about -65%; inconclusive = about -30% to -65%; inactive = above about -30%; further: on the % scale 0 is the no-effect control and ±100 the full control effect
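Homogeneous AlphaScreen proximity assay pairing GST-Six1 with His-tagged Eya2 (added as 5X mix: 250 nM and 500 nM) in 50 mM Tris pH 8.0, 300 mM NaCl, 1 mM TCEP. Glutathione donor and nickel acceptor beads; 1 h, 37 °C, dark.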
D2 ag: agonists of human D2 dopamine receptor (beta-arrestin); P14416; DiscoveRx PathHunter D2 beta-arrestin, luminescence, 90 min; 100% = 57 uM dopamine signal; activation, % (concentration not given with the values); 360,000 compounds, 0.084% hits; in the data active = activation above about 40%; inconclusive = about 15% to 40%; inactive = below about 15%; further: the text of the record calls up to 30% inactive
Target sequence (P14416 whole entry, looked up): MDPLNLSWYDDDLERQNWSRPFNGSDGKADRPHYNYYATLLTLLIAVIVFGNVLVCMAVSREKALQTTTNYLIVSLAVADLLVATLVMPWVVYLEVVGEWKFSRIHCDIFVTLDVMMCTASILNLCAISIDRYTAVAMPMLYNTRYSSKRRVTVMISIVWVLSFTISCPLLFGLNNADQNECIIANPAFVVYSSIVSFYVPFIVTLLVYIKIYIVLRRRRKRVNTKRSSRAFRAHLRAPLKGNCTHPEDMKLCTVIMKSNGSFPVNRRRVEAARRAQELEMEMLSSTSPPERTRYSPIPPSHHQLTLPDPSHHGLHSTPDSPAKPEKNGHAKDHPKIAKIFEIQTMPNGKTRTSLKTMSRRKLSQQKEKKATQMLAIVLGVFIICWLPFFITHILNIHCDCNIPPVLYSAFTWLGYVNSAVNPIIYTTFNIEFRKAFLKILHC
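DiscoveRx PathHunter D2 beta-arrestin cells (2,100/well) attached overnight, then compound-stimulated 90 min at 37 C in HBSS/10 mM HEPES/0.1% Tween-20 buffer; beta-galactosidase complementation read by luminescence after 1 h at ambient temperature. Dopamine 57 uM final (EC100) as control.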
TRPML1 agonist: human mucolipin-1 channel agonism. activation, % (no concentration beside the values). 410,000 compounds, 0.12% hits. Q9GZU1. TRPML1-expressing cells, Ca2+ dye fluorescence, FDSS; host cell line not named in the record; reference of the full effect not given here; in the data active = activation above about 50%; inconclusive = about 30% to 50%; inactive = below about 30%; further: 0% is about no effect; the text of the record puts the active cut at 80%
Target sequence (Q9GZU1 whole entry, looked up): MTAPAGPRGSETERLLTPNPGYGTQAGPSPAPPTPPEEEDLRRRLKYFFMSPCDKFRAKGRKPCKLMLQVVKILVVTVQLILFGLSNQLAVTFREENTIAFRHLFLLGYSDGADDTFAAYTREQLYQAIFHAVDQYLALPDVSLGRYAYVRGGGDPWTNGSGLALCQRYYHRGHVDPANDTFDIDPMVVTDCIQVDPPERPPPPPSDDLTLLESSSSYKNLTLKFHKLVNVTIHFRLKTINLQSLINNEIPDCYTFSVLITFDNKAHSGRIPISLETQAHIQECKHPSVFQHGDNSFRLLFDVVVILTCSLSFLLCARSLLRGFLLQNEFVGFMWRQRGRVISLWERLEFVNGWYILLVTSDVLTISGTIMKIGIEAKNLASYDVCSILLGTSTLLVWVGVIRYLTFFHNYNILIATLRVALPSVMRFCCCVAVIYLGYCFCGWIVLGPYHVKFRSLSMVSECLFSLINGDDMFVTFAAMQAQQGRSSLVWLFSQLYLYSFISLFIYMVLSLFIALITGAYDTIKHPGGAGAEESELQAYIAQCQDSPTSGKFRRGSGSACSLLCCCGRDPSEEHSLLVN
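Cells: TRPML1-DL, 1X Tet inducer, ~16 h at 37 degrees C/5% CO2. Dye: ABD Ca8 no-wash + quencher, 45-90 min RT. Read: 10 s baseline, compound add, 110 s agonist phase; 54-4 EC80 (4uM final), 110 s antagonist phase.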
TRPML1 blocker: human mucolipin-1 channel inhibition; 390,000 compounds, 0.02% hits; activity change, negative = inhibition, % (concentration not given with the values); TRPML1-inducible cells, Ca2+ dye fluorescence, FDSS; active compounds read low; inhibition of EC80 agonist-evoked calcium signal; Q9GZU1; in the data active means activity change below about -50%; inconclusive means about -30% to -50%; inactive means above about -30%;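 further: stimulus is agonist 54-4 at its EC80 concentration; on the % scale 0 is the no-effect control and ±100 the full control effect; the text of the record puts the active cut at -80%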
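Calcium fluorescence in TRPML1-DL cells induced overnight with Tet: a 110 s read after compound pin addition, then a 110 s antagonist read after challenge with 54-4 at 4 uM final (EC80).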
D2 potentiator: human D2 receptor positive allosteric modulation | AID 624464 | DiscoveRx D2 beta-arrestin cells, luminescence, 90 min; 100% = 57 uM dopamine signal | P14416 | 360,000 compounds, 0.23% hits | potentiation, % (no concentration beside the values); active = potentiation of 50% or more; inconclusive = 30% to 50%; inactive = 30% or less;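 further: compound concentration not given in the record; tested on top of an EC20 dose of dopamine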
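D2 cells co-treated with compound plus 50 nM dopamine (EC20) for 90 min at 37 deg C to detect potentiation. Beta-arrestin recruitment was read as enzyme-fragment luminescence after 1 h at ambient temperature. Full response was set by 57 uM dopamine.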
Active calls of the source: *; ? = inconclusive; / = no result given; [ ] = dose if it differs, or a comment.

SMILES	PINK1 expr mod	Six1-Eya2 inh	D2 ag	TRPML1 agonist	TRPML1 blocker	D2 potentiator
O=C(NN1CC(=O)N(c2cc(Cl)cc(Cl)c2)CC1=O)c1cccs1	0.5%	6	-6.0	0.4	-12	0
C#CCOCCOCCOCCNc1nc(N2CCN(C(=O)CCCCCCCCCCNC(=O)Cn3cc(CCCCCN)nn3)CC2)nc(N2CCN(C(=O)CCCCCCCCCCNC(=O)[C@@H]([C@H](C)O)n3cc(C)nn3)CC2)n1	0.6%	-6	1.1	-0.6	34	-8
CC1CCCN(C(=O)c2ccc([N+](=O)[O-])o2)C1 (stereo not given)	-1.3%	-21	1.4	0.0	-8	-3
O=C(Cn1cncn1)NCc1cccc2ccccc12	-0.4%	1	0.5	-0.2	2	-11
Cc1nc2[nH]c(=S)[nH]c2cc1Br	-1.8%	3	4.5	-0.4	-8	-13
Cc1ccc(C(=O)COC(=O)c2cccc(NC(=O)c3ccc(Cl)cc3Cl)c2)cc1	1.8%	/	/	-0.1	19	/
O=C1NC(=O)/C(=C/c2cccc(O)c2)N1	-0.4%	?	-1.0	2.8	-3	8
S=C(NC1CC1)NC1CCCc2ccccc21 (stereo not given)	1.9%	?	0.7	0.2	9	-4
COCCNC(=O)CSc1nc2c(n1-c1ccccc1)CCCC2	0.1%	3	0.4	0.0	4	16
CCOC(=O)C1CCc2sc(N)c(C#N)c21 (stereo not given)	/	-1	-2.7	0.3	29	4
O=C(NC12CC3CC(CC(C3)C1)C2)N1CCN(C(=O)c2ccco2)CC1	-0.6%	0	-2.3	-0.2	1	-3
Cc1ccc(-n2ncc3c(NCc4ccccc4)ncnc32)cc1C	9.0%	/	/	-0.2	6	/
CCC(C)Nc1nc2c(c(=O)[nH]c(=O)n2C)n1CCC(C)C (stereo not given)	0.2%	-4	-2.2	-1.4	-2	-12
COC(=O)c1ccccc1NC(=O)C1=CC(c2ccc3c(c2)OCO3)=NS(=O)(=O)N1C	1.0%	/	/	0.1	-11	/
CCOC(=O)/C(C#N)=C/c1cn(CCC(=O)O)nc1-c1ccc(OC)cc1	1.7%	-1	-1.5	-0.7	4	2
Oc1ccc(-c2cnc3ccccc3n2)cc1	0.8%	1	-4.0	-0.4	-1	0
CC(C)(C)NC(=O)c1ccc(NC(=O)c2ccccc2-c2ccccc2C(=O)O)cc1	2.3%	2	-5.0	-0.6	26	2
Cc1ccc(CSC2=Nc3ccccc3C3=NC(CC(=O)NCc4cccs4)C(=O)N23)c(C)c1 (stereo not given)	-0.2%	/	/	-0.2	22	/
CCc1ccc(NC(=O)Cn2nc(C)c([N+](=O)[O-])c2C)cc1	0.4%	0	-3.9	0.1	29	-8
COc1ccc(N2CCN(C(=S)Nc3ccc(C)cc3C)CC2)cc1	0.2%	-2	-2.9	1.4	-4	-1
CSc1cc(C)c(OCC(=O)Nc2c(C)nn(C)c2C)c(C)c1	-2.3%	3	-0.6	1.0	-2	-4
COc1ccc(/C=N/NC(=O)c2c(C)n(C)c3ccc(OC)cc23)c(OC)c1	5.0%	-19	0.2	0.6	-9	-17
Cc1cccc(C(=O)NCC(=O)OCC(=O)NCCNC(=O)COC(=O)CNC(=O)c2cccc(C)c2)c1	0.7%	-3	-5.2	-0.5	7	-4
COc1ccc(NC(=O)C2CCN(c3ccc(Sc4ccc(C)cc4)nn3)CC2)cc1	2.6%	/	/	-0.9	13	/
CCCn1c(=O)c2sccc2n2c(CCCC(=O)Nc3ccccc3F)nnc12	-0.7%	/	/	-0.1	22	/
The list continues:
SMILES	PINK1 expr mod	Six1-Eya2 inh	D2 ag	TRPML1 agonist	TRPML1 blocker	D2 potentiator
CC(=O)N1c2ccc(Cl)cc2C2OCCC2C1c1ccco1 (stereo not given)	-0.4%	0	3.0	-0.2	-8	-40
Cc1csc(CN(C)C(=O)CC2C(=O)NCCN2Cc2ccc(F)cc2Cl)n1 (stereo not given)	-0.3%	12	0.0	-0.4	6	-10
c1ccc2c(c1)OCC(c1nnc3sc(-c4ccc5c(c4)OCO5)nn13)O2 (stereo not given)	-3.1%	-7	-5.0	1.4	4	-6
Cc1cnc(NC(=O)c2cc3c(C)nn(-c4ccccc4)c3s2)s1	25%[38.3 µM]	4	-0.5	0.3	-17	2
CCOC(=O)c1ccc(CN(Cc2ccccc2)S(=O)(=O)c2cccc([N+](=O)[O-])c2)cc1	-0.6%	-1	1.9	0.8	8	-13
Cc1cccc(NS(=O)(=O)c2cccs2)c1	1.2%[38.3 µM]	6	1.8	0.0	12	-1
N#Cc1ccccc1OCC(=O)OCC(=O)N1CCN(C(=O)c2ccco2)CC1	1.2%	2	-2.2	-0.9	1	-5
N#CCCN(C(=S)NC(=O)c1cccs1)c1ccccc1F	-5.2%	2	-4.5	0.9	-5	-20
CC1=C(C(=O)N2CCOCC2)CC(CC(=O)NC(c2ccccc2)c2ccccc2)C(=O)N1Cc1ccc(F)cc1 (stereo not given)	0.4%	6	-2.2	-0.7	3	3
NS(=O)(=O)c1ccc(NC(=O)c2c(Cl)cccc2Cl)cc1	-0.2%	1	-3.7	0.0	-9	-7
O=C(CN1C(=O)NC2(CCCCC2)C1=O)N1CCN(S(=O)(=O)c2cccc(F)c2)CC1	1.3%	3	-0.1	0.3	-2	-11
C[C@@H](NC(=O)Cn1ccc(N)nc1=O)c1cccc2ccccc12	1.7%	-3	-0.7	0.4	-10	-2
CC(=O)Oc1ccc(Oc2ccc(-c3noc(C)n3)cc2)cc1	-0.8%	11	0.5	0.8	-7	-15
CC(=O)CCC(=O)OCC(=O)Nc1ccc(SC(F)F)cc1	1.0%	8	-0.4	-0.1	-1	-2
CC1=CC(=C(C#N)c2nc3ccccc3s2)C=C(C)N1c1ccc(F)cc1F	0.0%	11	-3.6	5.6	-7	-6
Cc1cccc2sc(NC(=O)[C@@H]3CCCN3C(=O)c3cccs3)nc12	1.8%	-3	1.7	3.3	13	7
CC(C)(C)c1cc(C(=O)N/N=C/c2ccc(F)cc2)n(-c2ccccc2)n1	?	-1	-3.7	2.1	-6	-13
CC1=Nc2ccccc2N=C(NC(=O)CSC(=S)N2CCCCC2)C1c1ccccc1 (stereo not given)	2.8%	-12	-2.1	1.2	-22	-2
Cc1cc(NS(=O)(=O)c2ccc(NC(=O)CSc3nnc(-c4ccco4)n3N)cc2)nc(C)n1	2.3%	-14	-1.3	-0.8	-5	-4
CCOC(=O)c1cc(-c2ccccc2)n(CCC(=O)Nc2cc(C)cc(C)c2)c1C	-0.1%	/	/	0.9	13	/
Fc1ccc(Nc2nc(SCc3ccc(Cl)cc3)nc3ccccc23)cc1	3.6%	/	/	1.8	-3	/
Cc1cccc(NC(=O)C2CC(=O)OC23CCCCC3)c1 (stereo not given)	0.7%	20	-4.2	0.2	15	-17
CCCn1c(-c2cc(OC)c(OC)c(OC)c2)nc2c1c(=O)[nH]c(=O)n2Cc1ccccc1	1.4%	-8	-1.9	0.5	-12	-7
COc1ccc(C2C=C(c3ccc(Br)cc3)Nc3nnnn32)c(OC)c1 (stereo not given)	3.5%	/	/	5.3	17	/
CC(CN1C(C)CCCC1C)OC(=O)c1cccc(F)c1 (stereo not given)	-1.1%	2	-5.7	-0.6	-6	-8
Continued:
SMILES	PINK1 expr mod	Six1-Eya2 inh	D2 ag	TRPML1 agonist	TRPML1 blocker	D2 potentiator
COc1ccc(CC(=O)Nc2c(C(=O)Nc3ccc(F)cc3)oc3ccccc23)cc1OC	1.0%	/	/	-0.8	11	/
CC(=O)c1ccc(S(=O)(=O)NCc2ccc(C(=O)N(C)CC(=O)Nc3cccc(F)c3)cc2)cc1	-1.0%	-7	-3.3	-0.5	-2	-1
O=C(c1ccc2nc(N3CCCCC3)sc2c1)N1CCN(c2ccccn2)CC1	2.7%	-5	-4.8	0.6	6	-10
Cc1nc(SCC(=O)NNC(=O)c2cccs2)[nH]c(=O)c1C	-1.9%	6	-4.0	-0.2	-4	-4
CCOc1ccccc1N(CC(=O)NC1CCCC1)S(=O)(=O)c1ccc(C)cc1	1.8%	-2	0.4	4.0	-3	-5
CCn1c(C)nc2cc(C(=O)N/N=C/c3ccc(OC)cc3)ccc21	-0.8%	-7	-1.5	-0.4	1	-7
Cc1c(C(=O)NCc2ccccc2Cl)sc2nc3n(c(=O)c12)CCCC3	7.5%	/	/	-0.1	5	/
COc1ccc2c(CN3CCOCC3)cc(=O)oc2c1	1.2%	14	-3.9	1.1	-11	-5
COc1ccc(NC(=O)c2sc3nc(C)c(C(=O)Nc4ccc(C)cc4C)c(-c4ccccc4Cl)c3c2N)cc1	-0.8%	/	/	0.7	0	/
O=C(CSc1nnc(C2CC2)n1Cc1ccccc1)c1cc2ccccc2o1	-2.0%	-10	-1.7	0.0	7	-11
Cc1cc(C(=O)N/N=C\c2cc(C(C)(C)C)c(O)c(C(C)(C)C)c2)n[nH]1	8.3%	10	1.3	2.4	-17	4
CC1CCCN(C(=O)CCc2ccccc2)C1 (stereo not given)	0.7%	11	-2.6	-0.1	10	-8
Cc1ccccc1OCCSc1nnc(-c2ccc([N+](=O)[O-])cc2)o1	1.6%	/	/	2.9	10	/
CCCCn1c(N)c(N(CC(C)C)C(=O)c2ccc([N+](=O)[O-])o2)c(=O)[nH]c1=O	0.5%	4	?	0.3	-4	2
O=C(CC1N=C2c3ccccc3N=C(SCC(=O)Nc3ccc(F)cc3)N2C1=O)NCc1cccs1 (stereo not given)	0.7%	/	/	1.2	-5	/
COc1ccc2ncc(S(=O)(=O)c3ccccc3)c(N3CCC4(CC3)OCCO4)c2c1	0.1%	1	-1.4	-0.3	-13	-6
Cn1c(NC(=O)c2cccs2)c(-c2cccs2)c(=O)c2ccccc21	15%[38.3 µM]	-2	-2.6	-0.7	3	0
CCC(CC)c1nc2cc(OC)c(OC)cc2c(=O)o1	-0.6%	0	2.0	-0.9	6	27
CCN1C(=O)[C@H]2[C@@H](c3ccccc3)N3C(=O)N(c4cccc(F)c4)C(=O)[C@@]3(CC(C)C)[C@H]2C1=O	-0.8%	4	0.1	-0.5	-1	-2
CC(=O)Nc1ccc(C(=O)CSc2nnc3cc(C)c4ccccc4n23)cc1	3.6%	/	/	-0.3	9	/
COc1ccccc1N1CCN(Cc2nc3ccsc3c(=O)[nH]2)CC1	0.6%	-3	-1.9	0.8	-6	-21
CCOC(=O)c1[nH]c2ccc(OCC)cc2c1CCCN1C(=O)c2ccccc2C1=O	11%	7	-1.0	2.0	-4	-11

Already shown: 4 of the compounds above.
SMILES	PINK1 expr mod	Six1-Eya2 inh	D2 ag	TRPML1 agonist	TRPML1 blocker	D2 potentiator
CCN1C(=O)[C@H]2[C@@H](c3ccccc3)N3C(=O)N(c4cccc(F)c4)C(=O)[C@@]3(CC(C)C)[C@H]2C1=O	-0.8%	4	0.1	-0.5	-1	-2
CC(=O)Nc1ccc(C(=O)CSc2nnc3cc(C)c4ccccc4n23)cc1	3.6%	/	/	-0.3	9	/
COc1ccccc1N1CCN(Cc2nc3ccsc3c(=O)[nH]2)CC1	0.6%	-3	-1.9	0.8	-6	-21
CCOC(=O)c1[nH]c2ccc(OCC)cc2c1CCCN1C(=O)c2ccccc2C1=O	11%	7	-1.0	2.0	-4	-11
